Assay outcomes deposited in PubChem BioAssay by Broad Institute.
Yeast UUG start – modulators of yeast start codon fidelity, primary screen, whole organism, S. cerevisiae, single point, plate reader; S. cerevisiae UUG-firefly luciferase reporter, luminescence/redox ratio; activity score, % at 18.7 µM; hit rate 0.13% among 350,000;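 active = replicate mean at a twofold rise or more, about +100% in these data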;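 note: firefly luciferase made from a UUG start codon reports start codon fidelity; reporter light over untreated wells divided by growth signal over untreated wells; some hits fall short of that in this replicate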
* = called active by the depositor. This is a subset; the hit share may differ from the screen's.

SMILES	Yeast UUG start
C[C@@H]1CN([C@@H](C)CO)C(=O)c2cccc(NS(=O)(=O)c3cn(C)cn3)c2O[C@@H]1CN(C)C(=O)NC1CCCCC1	23.6
C[C@@H]1CN([C@H](C)CO)C(=O)Cc2cc(NC(=O)CCCN(C)C)ccc2O[C@H]1CN(C)S(=O)(=O)c1ccccc1	5.3
O=C(CN1CCOCC1)N1CCCCN2[C@@H](CO)[C@H](c3ccc(/C=C/c4ccccc4)cc3)[C@@H]2C1	13.4
CCN(C[C@@H]1N[C@H](CO)[C@H]1c1ccc(-c2cccc(C#N)c2)cc1)C(=O)COC	-16.0
C[C@@H]1CN([C@@H](C)CO)C(=O)c2cc(NC(=O)c3ccncc3)ccc2O[C@H]1CN(C)C(=O)Nc1ccc(F)cc1	8.8
O=C(c1ccccc1F)N1C[C@H]2[C@@H](c3ccccc31)[C@@H](CO)N2Cc1ccc2c(c1)OCO2	13.3
CC=Cc1ccc2n(c1=O)C[C@H]1[C@H](CO)[C@@H](C(=O)NCCC)N(CC3CC3)[C@@H]21 (mixture of isomers)	2.0
CCCNC(=O)C[C@H]1CC[C@@H]2[C@@H](COc3ccc(NC(=O)c4cccs4)cc3C(=O)N2C)O1	-10.2
COc1ccccc1-c1ccc2c(c1)[C@H]1[C@H](CCN1S(=O)(=O)c1ccccc1OC)[C@@H](CO)N2	-15.3
CC(C)NC(=O)Nc1cccc2c1O[C@@H](CN(C)Cc1ccc(Oc3ccccc3)cc1)[C@@H](C)CN([C@H](C)CO)C2=O	7.6
Cc1ccc(S(=O)(=O)Nc2ccc3c(c2)C(=O)N([C@@H](C)CO)C[C@@H](C)[C@H](CN(C)Cc2ccncc2)O3)cc1	-9.5
CCCNC(=O)N1C[C@H](C)[C@H](OC)CN(C)C(=O)c2ccc(NC(=O)CCC)cc2OC[C@@H]1C	11.3

A different layout for 2 compounds above.
| Structure | Yeast UUG start |
| --- | --- |
| CCCNC(=O)N1C[C@H](C)[C@H](OC)CN(C)C(=O)c2ccc(NC(=O)CCC)cc2OC[C@@H]1C | 11.3 |
| CCN(C[C@@H]1N[C@H](CO)[C@H]1c1ccc(-c2cccc(C#N)c2)cc1)C(=O)COC | -16.0 |

More entries
SMILES	Yeast UUG start
CN1C(=O)c2cc(NC(=O)c3ccccc3)ccc2OC[C@H]2O[C@H](CC(=O)NC3CCCC3)CC[C@@H]21	6.7
COc1ccc(CN(C)C[C@@H]2Oc3ccc(NC(=O)NC(C)C)cc3CC(=O)N([C@@H](C)CO)C[C@@H]2C)cc1	-1.8
CC(=O)NC[C@@H]1[C@H](c2ccc(-c3ccccc3F)cc2)[C@H](CO)N1C(=O)C1CC1	18.3
O=C(c1ccc2c(c1)OCO2)N1CC[C@@H]2[C@@H](CO)Nc3ccc(-c4ccc(F)cc4)cc3[C@@H]21	-6.3
CO[C@@H]1CN(C)C(=O)c2cc(NC(=O)c3ccccc3F)ccc2OC[C@@H](C)N(CC2CC2)C[C@@H]1C	5.4
COCC(=O)N1C[C@@H](C)[C@@H](OC)CN(C)C(=O)c2ccc(NC(=O)c3ccccc3)cc2OC[C@@H]1C	6.5
COc1ccc(NC(=O)N(C)C[C@@H]2Oc3ccc(NC(=O)Nc4ccccc4)cc3C(=O)N([C@H](C)CO)C[C@H]2C)cc1	-6.4
COc1ccccc1C(=O)Nc1ccc2c(c1)C(=O)N(C)[C@H]1CC[C@H](CC(=O)NCc3ccc(Cl)c(Cl)c3)O[C@@H]1CO2	-8.1
OC[C@H]1[C@H](c2ccc(-c3cccnc3)cc2)[C@@H]2CN(Cc3ccccn3)CCCCN12	-52.3
Cc1ccc(S(=O)(=O)N(C)C[C@@H]2Oc3c(NC(=O)C4CC4)cccc3C(=O)N([C@H](C)CO)C[C@@H]2C)cc1	3.2
CN1CCCCN2[C@H](CO)[C@H](c3ccc(C#CC4(O)CCCC4)cc3)[C@H]2C1	46.2
CN1CCN(C(=O)C[C@@H]2CC[C@@H]3[C@H](COC[C@@H](O)CN3Cc3cccc(-c4ccncc4)c3)O2)CC1	-2.6
COCC(=O)N1CC[C@@H]2[C@H](CO)Nc3ccc(C#Cc4ccccc4)cc3[C@@H]21	3.0
O=C(C[C@H]1C[C@H]2c3cc(NC(=O)C4CCOCC4)ccc3O[C@H]2[C@@H](CO)O1)NC1CCCCC1	4.4
C[C@H]1CN([C@@H](C)CO)C(=O)c2cc(NS(=O)(=O)c3ccc(Cl)cc3)ccc2O[C@H]1CN(C)S(=O)(=O)c1cn(C)cn1	8.0
CC(=O)N(CC1CCC1)C[C@@H]1N[C@@H](CO)[C@H]1c1ccc(C2=CCCC2)cc1	0.2
O=S(=O)(c1ccccc1)N1CC[C@@H]2[C@H]1c1cc(C#Cc3cccc(F)c3)ccc1N[C@@H]2CO	-15.9
Cc1noc(C)c1S(=O)(=O)N(C)C[C@H]1Oc2ccc(NS(=O)(=O)c3cccs3)cc2C(=O)N([C@@H](C)CO)C[C@H]1C	0.5
O=C(Nc1cc(F)ccc1F)N1CCCCN2[C@@H](CO)[C@@H](c3ccc(-c4ccncc4)cc3)[C@@H]2C1	-7.7
COc1ccc(-c2ccc3c(c2)[C@H]2[C@H](CCN2C(=O)C2CC2)[C@H](CO)N3C)cc1	-11.7
CCNC(=O)Nc1ccc2c(c1)C(=O)N(C)[C@@H]1CC[C@H](CC(=O)NC3CCCCC3)O[C@H]1CO2	1.0
Cn1cnc(S(=O)(=O)N2C[C@H](O)COC[C@H]3O[C@H](CC(=O)NCc4ccc(F)cc4)CC[C@@H]32)c1	-12.8
O=S(=O)(c1ccccc1F)N1CCCCN2[C@H](C1)[C@@H](c1ccc(-c3cccnc3)cc1)[C@@H]2CO	4.0
O=C(C[C@H]1C[C@H]2c3cc(NC(=O)CC4CC4)ccc3O[C@H]2[C@H](CO)O1)NCc1cccc(F)c1	-8.3
CO[C@@H]1CN(C)C(=O)c2cc(NC(=O)Nc3ccccc3F)ccc2OC[C@H](C)N(CC2CC2)C[C@H]1C	18.2
C[C@H](CO)N1C[C@H](C)[C@H](CN(C)S(=O)(=O)c2ccccc2)Oc2c(NS(=O)(=O)c3cccs3)cccc2C1=O	-5.4
CC(C)NC(=O)Nc1cccc2c1O[C@@H](CN(C)S(=O)(=O)c1ccc(Cl)cc1)[C@@H](C)CN([C@H](C)CO)C2=O	12.6
O=C(C1CC1)N1C[C@H]2[C@@H](c3ccccc31)[C@H](CO)N2C(=O)Nc1cccc(F)c1	3.6
Cc1ccccc1S(=O)(=O)N1CC[C@@H]2[C@H]1c1cc(-c3cccc(C#N)c3)ccc1N(C)[C@H]2CO	5.7
C[C@H]1CN([C@@H](C)CO)C(=O)c2cc(NC(=O)Nc3ccc(C(F)(F)F)cc3)ccc2O[C@@H]1CN(C)C(=O)Nc1ccccc1	-1.3
COc1ccc(NC(=O)Nc2ccc3c(c2)CC(=O)N([C@@H](C)CO)C[C@@H](C)[C@H](CN(C)Cc2ccncc2)O3)cc1	-1.2
O=C(C1CCC1)N1CC[C@@H]2[C@@H](CO)Nc3ccc(-c4cccc(F)c4)cc3[C@@H]21	-10.4
O=C(Nc1ccccc1)[C@H]1[C@H](CO)[C@H]2Cn3c(cccc3=O)[C@@H]1N2Cc1ccncc1	-15.4
C[C@H](CO)N1C[C@H](C)[C@@H](CN(C)Cc2ccc(C(=O)O)cc2)Oc2ccc(NC(=O)CCC(F)(F)F)cc2CC1=O	-3.6
C/C=C/c1ccc([C@@H]2[C@H](CO)N(C(=O)CC)[C@H]2CNC(=O)c2ccncc2)cc1	4.7
CC(=O)N1[C@H](CO)[C@@H](c2ccccc2)[C@@H]1CN(CC(C)C)C(=O)c1ccccn1	-3.3
COc1ccc(C(=O)N2C[C@H]3[C@@H](c4ccccc42)[C@H](CO)N3Cc2ccccc2Cl)cc1	27.1
C[C@H](CO)N1C[C@H](C)[C@H](CN(C)CC2CCCCC2)Oc2c(NC(=O)Nc3ccc(C(F)(F)F)cc3)cccc2C1=O	-2.4
COCC(=O)N1C[C@H](C)[C@H](OC)CN(C)C(=O)c2ccc(NC(=O)C3CCC3)cc2OC[C@H]1C	1.2
COC(=O)N(C)C[C@H]1OCc2ccccc2-c2ccccc2C(=O)N([C@@H](C)CO)C[C@@H]1C	-0.2
OC[C@H]1[C@H](c2ccc(C#CC3(O)CCCC3)cc2)[C@H]2CN(Cc3ccncc3)CCCCN21	9.9
C[C@@H](NC(=O)C[C@H]1CC[C@H]2[C@@H](COc3ccc(NC(=O)C4CCOCC4)cc3C(=O)N2C)O1)c1ccccc1	23.0
CN1[C@@H](CO)[C@@H]2c3ccccc3N(C(=O)Nc3ccccc3F)C[C@@H]21	7.2
C[C@@H](O)C#Cc1ccc([C@H]2[C@H](CO)N3CCCCN(CC4CC4)C[C@@H]23)cc1	9.2
C[C@H](CO)N1C[C@H](C)[C@@H](CN(C)Cc2ccncc2)Oc2ccc(NC(=O)Nc3ccc(C(F)(F)F)cc3)cc2CC1=O	1.8
COc1ccc(NC(=O)Nc2ccc3c(c2)[C@H]2C[C@@H](CC(=O)N(C)C)O[C@H](CO)[C@H]2O3)cc1	-5.2
C[C@H]1CN([C@@H](C)CO)C(=O)Cc2cc(NC(=O)C3CCCCC3)ccc2O[C@H]1CN(C)S(=O)(=O)c1ccccc1	6.3
O=C(NC1CCCC1)[C@@H]1[C@@H](CO)[C@@H]2Cn3c(cccc3=O)[C@H]1N2Cc1cc(F)ccc1F	-7.0
CCN(C[C@@H]1[C@@H](c2ccccc2)[C@H](CO)N1S(C)(=O)=O)C(=O)C1CCCC1	-7.5
O=S(=O)(c1ccccc1)N1CCCCN2[C@H](C1)[C@@H](c1ccc(-c3ccccc3F)cc1)[C@@H]2CO	-4.4
C[C@@H]1CN([C@H](C)CO)C(=O)Cc2cc(NS(=O)(=O)c3ccc(Cl)cc3)ccc2O[C@H]1CN(C)CC1CC1	14.5
O=S(=O)(c1ccccc1F)N1CCCCN2[C@H](C1)[C@@H](c1ccc(-c3cncnc3)cc1)[C@@H]2CO	-4.8
CO[C@@H]1CN(C)C(=O)c2cc(NC(=O)C3CCC3)ccc2OC[C@@H](C)N(Cc2cccnc2)C[C@H]1C	-0.4
C[C@H]1CN([C@@H](C)CO)C(=O)CCCn2cc(nn2)CO[C@H]1CN(C)S(=O)(=O)c1cn(C)cn1	7.1
Cc1noc(C)c1NC(=O)Nc1cccc2c1O[C@@H](CN(C)Cc1ccc(C(=O)O)cc1)[C@H](C)CN([C@H](C)CO)C2=O	-10.5
CN1CCN(C(=O)C[C@H]2CC[C@@H]3[C@H](COC[C@@H](O)CN3Cc3ccc4c(c3)OCO4)O2)CC1	-5.1
O=C(Nc1ccccc1Cl)N1C[C@@H]2[C@H](c3ccccc31)[C@@H](CO)N2Cc1ccncc1	-20.9
CCC(=O)N1[C@@H](CO)[C@@H]2c3ccccc3N(C(=O)CC(F)(F)F)C[C@@H]21	7.2
CCOC(=O)N(C)C[C@H]1OCc2ccccc2-c2c(n(C)c3ccccc23)C(=O)N([C@H](C)CO)C[C@@H]1C	20.6
CCC(=O)N1[C@@H](CO)[C@@H](c2ccccc2)[C@@H]1CN(C)C(=O)c1ccccc1F	15.9
Later entries
SMILES	Yeast UUG start
COc1ccc(C#Cc2ccc([C@H]3[C@@H](CO)N4CCCCN(C(=O)Nc5ccc(F)cc5)C[C@@H]34)cc2)cc1	3.3
O=C(Nc1ccccc1F)N1C[C@@H]2[C@H](c3ccccc31)[C@@H](CO)N2C(=O)c1ccccc1F	3.3
Cc1cccc(S(=O)(=O)N2CC[C@@H]3[C@H](CO)Nc4ccc(C#Cc5ccc(F)cc5)cc4[C@@H]32)c1	-4.9
COc1ccccc1-c1ccc([C@H]2[C@H]3CN(C(=O)CN4CCOCC4)CCCCN3[C@H]2CO)cc1	-3.3
C[C@@H]1CN([C@@H](C)CO)C(=O)c2cccc(NS(=O)(=O)c3cccs3)c2O[C@@H]1CN(C)Cc1ccc(C(=O)Nc2ccccc2N)cc1	11.7
CCCNC(=O)C[C@@H]1C[C@H]2c3cc(NS(C)(=O)=O)ccc3O[C@H]2[C@@H](CO)O1	-7.4
COc1ccc(NC(=O)N(C)C[C@@H]2OCc3ccccc3-c3ccccc3C(=O)N([C@H](C)CO)C[C@@H]2C)cc1	-4.0
COc1ccccc1C#Cc1ccc([C@@H]2[C@@H](CO)N3CCCCN(C(=O)C4CCCC4)C[C@@H]23)cc1	-7.5
COc1ccc(-c2ccc3c(c2)[C@H]2[C@H](CCN2S(=O)(=O)c2ccccc2C)[C@@H](CO)N3)cc1	-26.8
CN1c2ccc(Br)cc2[C@@H]2[C@@H](CCN2C(=O)Cc2ccccc2)[C@H]1CO	0.1
CCCNC(=O)N(C)C[C@@H]1[C@@H](c2ccccc2)[C@H](CO)N1C(=O)c1ccccc1	-2.0
O=C(c1ccccn1)N1C[C@@H]2[C@H](c3ccccc31)[C@@H](CO)N2C(=O)Nc1ccccc1F	1.2

5 compounds already listed, sorted by number of heavy atoms, falling.
SMILES	Yeast UUG start
C[C@@H]1CN([C@@H](C)CO)C(=O)c2cccc(NS(=O)(=O)c3cccs3)c2O[C@@H]1CN(C)Cc1ccc(C(=O)Nc2ccccc2N)cc1	11.7
COc1ccc(NC(=O)N(C)C[C@@H]2OCc3ccccc3-c3ccccc3C(=O)N([C@H](C)CO)C[C@@H]2C)cc1	-4.0
COc1ccc(C#Cc2ccc([C@H]3[C@@H](CO)N4CCCCN(C(=O)Nc5ccc(F)cc5)C[C@@H]34)cc2)cc1	3.3
Cc1cccc(S(=O)(=O)N2CC[C@@H]3[C@H](CO)Nc4ccc(C#Cc5ccc(F)cc5)cc4[C@@H]32)c1	-4.9
CN1c2ccc(Br)cc2[C@@H]2[C@@H](CCN2C(=O)Cc2ccccc2)[C@H]1CO	0.1

(list continues)
SMILES	Yeast UUG start
CCCNC(=O)Nc1ccc2c(c1)C(=O)N(C)[C@H]1CC[C@H](CC(=O)NCCCN(C)C)O[C@H]1CO2	-14.3
O=C(NC1CCCC1)N1CCCCN2[C@H](CO)[C@@H](c3ccc(-c4cncnc4)cc3)[C@@H]2C1	-12.1
CO[C@@H]1CN(C)C(=O)c2ccc(NC(=O)c3ccc4c(c3)OCO4)cc2OC[C@H](C)N(CC2CC2)C[C@@H]1C	6.6
C[C@H](CO)N1C[C@H](C)[C@@H](CN(C)Cc2cccc(C(=O)O)c2)OCc2cn(nn2)CCCC1=O	-19.3
